CSC inhib: blocks cancer stem cells; 300,000 tested, 1.1% active; inhibition, % at 7.5 µM; cancer stem cell-like cells viability, luminescence;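 active = mean at 75% or more and at least half the replicates too; inconclusive = mean and replicates disagree; tested in HMLE shEcad cells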;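 note: 0% = median of negative and 100% = median of positive control wells; the first replicate is given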
MT1-MMP act inh: MT1-MMP (human) activation inhibition | P50281 | HT1080 RFP-PRO-GFP cells, GFP/RFP ratio fluorescence, overnight; percent of plate control window, DMSO zero | GFP/RFP ratio change, % at 20 µM | 360,000 tested, 0.061% active | AID 651647;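 active = GFP/RFP ratio change of at least 30% with cell ATP level not reduced by more than half and red fluorescence within 50% of control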; note: strong numbers were not always called active
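Read-out: GFP/RFP fluorescence ratio; Test system: RFP-PRO-GFP reporter HT1080 cells; Compound dosing: single-point 20 µM compound, 1% DMSO; Times: overnight compound exposure at 37 °C.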
eIF4H inh: inhibitors of RNA binding by human eIF4H; 290,000 tested, 0.94% active; inhibition, % at 35 µM; eIF4H fluorescence polarization binding assay;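 active = 50% or more with normal probe brightness, or confirmed in later tests; inconclusive = above 50% with abnormal brightness, or retests that disagree; inactive = below 50% or failed in later tests; about a fifth of its hits are not listed in these tables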;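 note: calls also rest on retests at 20 µM and on dose response follow-up; 0% = protein and probe with vehicle and 100% = probe without protein; strong numbers were not always called active; many hits fall short of the cut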
Rce1 inhib: inhibitors of yeast Ras-converting enzyme | Q03530 | yeast membranes, quenched prenylated peptide cleavage fluorescence | calls only | 290,000 tested, 0.27% active;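 active = fall in fluorescence gain of 50% or more versus controls, with final raw signal at or below 3038400; inconclusive = same 50% fall but final raw signal above 3038400; inactive = fall in fluorescence gain under 50%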;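 note: plate controls were neutral control wells for no effect and wells lacking membranes for full effect; tested at 10 µM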
Target sequence (Q03530 whole entry, looked up): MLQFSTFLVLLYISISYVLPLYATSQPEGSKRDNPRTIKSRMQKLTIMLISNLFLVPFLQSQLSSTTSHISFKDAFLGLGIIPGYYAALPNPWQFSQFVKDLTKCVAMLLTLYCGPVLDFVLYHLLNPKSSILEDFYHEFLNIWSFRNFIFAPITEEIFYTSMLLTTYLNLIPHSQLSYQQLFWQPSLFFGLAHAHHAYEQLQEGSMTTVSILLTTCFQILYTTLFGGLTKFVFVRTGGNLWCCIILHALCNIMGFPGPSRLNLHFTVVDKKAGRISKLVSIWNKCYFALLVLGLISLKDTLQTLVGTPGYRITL
HIV Env fusion: HIV envelope-mediated fusion inhibition. inhibition, % at 12.3 µM. HeLa-JRFL Env/CEM21 cell fusion, luciferase. 360,000 tested, 1.1% active. AID 651610;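 active = mean replicate inhibition score of at least 50 and every replicate individually at or above 50; inconclusive = only one of the two criteria met; inactive = mean below 50 and not all replicates reaching 50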;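 note: 0% = plate neutral controls and 100% = maraviroc near 300 nM; one replicate is shown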
UUG fidelity: yeast start codon fidelity modulation; S. cerevisiae UUG-firefly luciferase reporter, luminescence/redox ratio; activity score, % at 18.7 µM; 350,000 tested, 0.13% active; AID 602363;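 active = replicate mean at a twofold rise or more, about +100% in these data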;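 note: firefly luciferase made from a UUG start codon reports start codon fidelity; reporter light over untreated wells divided by growth signal over untreated wells; some hits fall short of that in this replicate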
PABP FP inh: PABP-poly(A) binding inhibition | PABP-poly(A) RNA binding, fluorescence polarization | inhibition, % at 35 µM | 290,000 tested, 1% active;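 active = 50% or more with normal probe brightness, or confirmed in later tests; inconclusive = above 50% with abnormal brightness, or retests that disagree; inactive = below 50% or failed in later tests; about a fifth of its hits are not listed in these tables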;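 note: calls also rest on retests at 20 µM and on dose response follow-up; controls were probe without protein and protein plus probe with vehicle; some compounds called inactive have numbers as strong as hits; many hits fall short of the cut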
eIF4H inh retest: further read-out of eIF4H inh, marked with its call; inhibition, %; compound at 20 µM; confirmation average;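 mean of two retest wells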
PABP FP inh retest: further read-out of PABP FP inh, marked with its call; inhibition, %; compound at 20 µM; confirmation repeats;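 mean of two retest wells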
MT1-MMP act inh RFP: also measured in MT1-MMP act inh; calls as there; RFP signal change, %; measured here: RFP expression control read;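 0 = vehicle wells; hits needed this value within 50% of zero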
* marks the source's active call; other numbers are inactive results; i = inactive; ? = inconclusive; . = no result given. The list is partial (hit frequency here may not be typical).

SMILES	CSC inhib	MT1-MMP act inh	MT1-MMP act inh RFP	eIF4H inh	Rce1 inhib	HIV Env fusion	UUG fidelity	PABP FP inh	others
CC(=O)OCC(=O)[C@H]1CC[C@H]2[C@@H]3CC[C@H]4C[C@H](O)CC[C@]4(C)[C@H]3C(=O)C[C@]12C	-12.3	-0.9	-2.5	.	.	2.2	20.4	.
COc1cc(CNCCc2c[nH]c3ccccc23)cc(OC)c1	14.3	1.3	4.3	5.9	i	61.0*	-7.8	6.4
O=C(CN1CC=C(c2ccccc2)CC1)NC(=O)NCc1ccccc1	-16.4	-2.1	2.5	-11.4	i	-6.4	.	-2.5
CCOC(=O)C1CCN(/C=C2/C(=O)NC(=O)N(c3ccc(OCC)cc3)C2=O)CC1	-11.2	-24.7	6.6	1.0	.	.	-10.6	9.2
CN1C(=O)NC(=O)C(N=Nc2ccc(Cl)cc2)C1=O (configuration not stated)	.	1.4	5.6	.	.	-16.2	-17.7	.
COc1cccc(-c2nc3ccc(N4CCN(C)CC4)cc3[nH]2)c1	19.4	-9.8	-0.3	-7.4	?	17.0	-71.3	1.6
Cc1ccc(C2NC(=S)NC(c3ccc(C)cc3)C23C(=O)NC(=O)NC3=O)cc1 (configuration not stated)	2.0	0.1	-0.8	-10.7	i	-189.9	-15.3	-6.5
Cc1ccccc1C(=O)N1CC1C (configuration not stated)	.	0.8	-0.9	.	.	-1.9	-14.7	.
COc1ccccc1CN1CCCC(C(=O)c2ccccc2SC)C1 (configuration not stated)	-9.5	0.4	0.1	0.8	i	11.3	.	-7.3
CCCOC(=O)c1c(N)n(Cc2cccs2)c2nc3ccccc3nc12	-7.1	-45.0	-25.1	-10.6	i	-4.1	-11.0	-4.2

Next section (3 carried over from the part before).
SMILES	CSC inhib	MT1-MMP act inh	MT1-MMP act inh RFP	eIF4H inh	Rce1 inhib	HIV Env fusion	UUG fidelity	PABP FP inh	others
Cc1ccccc1C(=O)N1CC1C (configuration not stated)	.	0.8	-0.9	.	.	-1.9	-14.7	.
COc1ccccc1CN1CCCC(C(=O)c2ccccc2SC)C1 (configuration not stated)	-9.5	0.4	0.1	0.8	i	11.3	.	-7.3
CCCOC(=O)c1c(N)n(Cc2cccs2)c2nc3ccccc3nc12	-7.1	-45.0	-25.1	-10.6	i	-4.1	-11.0	-4.2
C#CCNc1ccncc1S(=O)(=O)NC(=O)NC(C)C	16.0	2.3	0.5	0.2	i	.	-5.6	-0.2
Cc1cc(OCC(=O)N[C@H](C(=O)O)c2ccccc2)c2c3c(c(=O)oc2c1)CCC3	-11.5	5.1	5.0	-6.0	i	.	0.3	8.5
CCn1c(O)c(N=Nc2cccc(S(=O)(=O)N3CCOCC3)c2)c(=O)n(CC)c1=S	-7.2	1.7	1.9	3.5	i	-6.3	.	-6.7
CNC(=O)Oc1cc2c(cc1C(C)(C)C)CCC2	.	7.0	1.9	.	.	20.7	-5.6	.
N#CC1c2ccccc2-n2nncc2CN1S(=O)(=O)c1ccc(Cl)cc1 (configuration not stated)	.	2.4	6.3	.	.	-5.0	-8.8	.
Nc1ccc(N2CCN(Cc3ccccc3Cl)CC2)c(Cl)c1	79.5*	6.6	2.7	-2.1	i	.	-5.2	2.5
O=C1NC(=O)C(=Cc2ccccc2Oc2ccc(F)cc2)C(=O)N1	.	6.3	1.4	-6.9	.	-11.6	.	3.7
CCOc1ccc(C(C)=O)cc1Cc1c(O)[nH]c(=S)[nH]c1=O	-14.1	-0.2	1.6	9.9	i	-12.5	-29.8	5.3
COc1cc(CN2CC3CC(C2)c2cccc(=O)n2C3)cc(OC)c1OC (configuration not stated)	-6.3	2.7	2.4	-7.2	i	.	-19.7	15.1
COP(=O)(Cc1ccc(C#N)o1)OC	6.4	-1.6	-0.8	2.0	i	-3.1	.	4.6
C=CCN1C(=O)NC(=O)/C(=C/c2ccc(OC)c(CSc3ccccn3)c2)C1=O	-8.6	0.6	2.2	-1.6	i	.	-41.0	25.1
CCOP(=O)(OCC)C(NC(=O)c1cccc(C)c1)C(Cl)(Cl)Cl (configuration not stated)	0.3	0.4	0.4	-9.6	i	-2.4	.	4.0
CCC1(CC)C(=O)NC(=Nc2cccc(C(F)(F)F)c2)NC1=O	-7.0	3.9	-1.0	-0.5	i	-50.1	-14.9	-3.0
O=C(c1cccn2c(=O)c3ccc(Cl)cc3nc12)N1CCC2(CC1)OCCO2	10.1	1.0	-3.3	-15.7	i	.	-8.0	-12.6
COc1ccc(C2SCC(=O)Nc3c2c(=O)[nH]n3C2CCCCC2)cc1 (configuration not stated)	-10.7	-4.0	-2.7	-2.5	i	2.2	-20.7	-10.7
CN(C)CCc1nn[nH]n1	0.7	-1.7	2.3	1.9	i	.	-22.1	-9.9
N#CCCn1cc(C(=O)O)c(-c2cccc([N+](=O)[O-])c2)n1	-3.1	-2.9	0.8	-12.2	i	14.8	.	1.9
COC(=O)C1=C(c2cc3ccccc3s2)C[C@@H]2CC[C@H]1N2C(=O)NC(C)C	0.7	1.4	-2.3	.	i	5.2	-8.5	.
Clc1ccc2sc(C3CCNCC3)nc2c1	-0.2	0.8	-0.1	-5.9	i	-8.8	-18.9	7.1
S=C(N1CCCCCC1)N1CC1	.	-8.3	-2.6	.	.	-3.4	0.0	.
CC(C)NS(=O)(=O)c1ccc(OCC(=O)N2CCN(Cc3ccc4c(c3)OCO4)CC2)c(Cl)c1	3.0	2.5	-16.7	-2.5	i	74.2*	8.1	-16.1
N=C1c2ccccc2CN1NC(=O)c1ccc(F)cc1	-16.4	0.3	3.0	-3.4	.	.	.	2.1
COc1cc2c(cc1OC)C13CCN4CC5=CCOC6CC(=O)N2C1C6C5C3C4 (configuration not stated) (tested in a mixture with another compound)	.	5.7	4.5	.	.	-1.2	1.7	.
Cc1ccc2c(c1)CCCN2N=O	.	-9.0	-2.3	3.8	i	-17.0	-17.3	-8.7
O=c1[nH]c(=S)n(C2CC2)c(O)c1C=NCCN1CCOCC1	-15.3	-1.8	1.9	-10.1	i	21.3	.	-1.1
CSc1ccccc1C(=O)C1CCCN(Cc2cccc(C)n2)C1 (configuration not stated)	-6.5	1.9	5.4	-6.0	i	13.3	.	3.8
CCOC(=O)CC(SP1(=S)OCC2(CCCCO2)C(C2CCCCO2)O1)C(=O)OCC (configuration not stated)	.	-2.4	-3.3	.	.	15.8	-0.3	.
CCN1CCN(c2ccc(N)c(C)c2)CC1	0.3	2.6	-0.2	-1.7	i	-6.4	-5.5	-5.6
CN1CCN(Cc2nc3ccccc3n2C)CC1	-6.0	-1.6	4.3	11.6	i	-110.0	-20.2	-3.1
COc1ncccc1C(=O)NCC(CC(=O)O)c1ccccc1 (configuration not stated)	-17.8	4.5	5.4	10.3	i	18.9	-14.3	-0.6
COc1cccc(CNCCc2ccc3c(c2)OCO3)c1OC	-11.0	0.6	3.1	2.5	i	4.8	10.2	-6.4
Oc1ccc(CC2(N3CCCC3)CCCCC2)cc1	-10.0	-9.2	1.9	1.6	i	-3.0	-5.9	-8.2
CC(=O)n1cc(C=C2C(=O)NC(=O)NC2=O)c2ccccc21	2.0	-7.7	-1.7	.	i	-1.5	-23.9	.
Cc1ccccc1N1C(=O)CC(=O)N(c2ccccc2C)C1=O	.	-11.7	2.2	?	i	12.9	.	-3.2
O=C(NC(Oc1ccccc1)C(Cl)(Cl)Cl)c1ccccc1 (configuration not stated)	-5.1	-2.9	-2.4	-2.0	i	7.8	-10.3	1.1
CCOC1=C(N2CC2)C(=O)C(OCC)=C(N2CC2)C1=O	.	-3.8	1.5	.	.	12.6	-0.7	.
Cc1c(N=Nc2c(O)n(Cc3ccccc3)c(=O)[nH]c2=O)c(=O)n(-c2ccccc2)n1C	-1.2	10.5	2.1	7.6	i	26.3	-27.0	-2.2
c1ccc(-c2ccc(-c3n(-c4ccccn4)c4ccccc4[n+]3-c3ccccn3)cc2)cc1	.	0.4	-12.5	1.7	i	19.3	.	2.1
CN(C)CCN(C(=O)COc1ccc(Cl)cc1)c1nc2cc3c(cc2s1)OCO3	-14.9	0.5	2.4	-3.0	i	0.9	-15.2	9.8
COC(=O)C1=C(c2ccc(F)cc2F)C[C@@H]2CC[C@H]1N2C(=O)NCCCOC(C)C	-10.5	0.6	2.2	.	.	8.5	-4.5	.
Fc1cccc(-c2ccc3c(c2)CN(C(=S)NCCc2ccccc2)Cc2cnnn2-3)c1	.	4.0	1.1	.	.	3.8	-7.4	.
COc1ccc(-n2c(O)c(C(C)=NCCN3CCNCC3)c(=O)[nH]c2=O)cc1	0.3	-0.7	5.7	-3.4	i	-30.3	-2.3	8.0
N#CC1=C(N)Oc2c(c(=O)sc3ccccc23)C1c1cccnc1 (configuration not stated)	51.4	-13.7	-11.6	-4.8	i	-3.6	-12.4	8.1
N[C@@H](Cc1c[nH]c2ccccc12)c1nnc(SCc2ccc(F)cc2)o1	.	-1.3	1.8	7.7	i	-10.5	-2.2	4.2
Oc1cccc2cccnc12	-4.1	1.4	3.9	15.3	.	.	-2.6	2.4
CCOP(=O)(Oc1ccccc1)c1c([N+](=O)[O-])cc(C(F)(F)F)cc1[N+](=O)[O-] (configuration not stated)	-6.6	2.4	1.0	-0.4	i	10.1	-29.3	16.6
CN(C)P1(N(C)C)=NC(C(F)(F)F)=NC(C(F)(F)F)=N1	-7.6	4.7	1.6	-10.0	i	3.3	-19.3	-11.2
N/C(=N/[N+](=O)[O-])N1CCN(C(=O)Oc2ccc([N+](=O)[O-])cc2)CC1	-10.6	-0.6	0.9	-4.8	i	-3.0	-16.1	-8.4
CCN1C(=O)c2ccccc2Sc2ccc(C(=O)N3CCC4(CC3)OCCO4)cc21	-8.6	1.7	-5.9	-6.2	i	.	-19.3	-4.0
CC(=O)N(C)C1=Nc2ccc(Cl)cc2C(c2ccccc2)=[N+]([O-])C1	.	2.3	0.1	.	.	-9.8	-19.8	.
(list continues)
SMILES	CSC inhib	MT1-MMP act inh	MT1-MMP act inh RFP	eIF4H inh	Rce1 inhib	HIV Env fusion	UUG fidelity	PABP FP inh	others
COc1cc(CNCCc2c[nH]c3ccccc23)cc(OC)c1OC	.	1.7	5.2	.	.	-7.8	-9.8	.
CC1N=C(c2ccccc2Cl)c2cc(Br)ccc2NC1=O (configuration not stated)	-16.3	1.6	0.2	3.8	i	-6.2	.	0.3
c1cncc(CNCCc2ccc3c(c2)OCO3)c1	-10.6	0.0	-1.5	-1.5	i	-42.8	-1.1	-7.2
COc1ccc(S(=O)(=O)NCc2ccc(C(=O)N3CCC4(CC3)OCCO4)cc2)cc1	-11.8	-1.1	-0.1	0.5	i	.	-8.7	-2.1
CCN1C(=O)NC(=O)/C(=C\c2cn(CC(=O)N3CCCC3)c3ccccc23)C1=O	3.9	-4.6	2.0	?	i	-71.4	-2.3	?
N=c1n(CCO)c2ccccc2n1Cc1ccccc1	-5.7	-1.5	-0.2	-3.5	i	.	-11.2	5.4
CCN(CC)c1ccc(N=Cc2c(O)n(-c3ccc(OC)cc3)c(=O)[nH]c2=O)cc1	1.8	-13.6	8.6	130.1	i	44.7	-9.3	125.4	eIF4H inh retest=-2.4;PABP FP inh retest=1.8
CC(c1ccc(F)cc1)n1cc(C(=O)NCc2ccc3c(c2)OCO3)nn1 (configuration not stated)	56.7	-3.3	0.4	2.9	i	-46.1	-5.7	-3.2
O=c1c2ccccc2nc(/C=C/c2ccccc2O)n1-c1ccccc1O	44.5	-58.8	-4.5	?	i	-3.3	.	?
